Screening data (PubChem)
Vaccinia inh: blocks a specific stage of Vaccinia orthopoxvirus infection | Vaccinia-infected cells, mCherry/Venus stage reporter fluorescence; stronger effect = lower value; some inactives read as strong as hits | activity change (mCherry), % (test concentration not listed) | 0.01% of 89,000 active | AID 1053133;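 active = mCherry past -33% and 40 or more points under the early reporter, replicates agreeing; inconclusive = past -33% without that gap or agreement; tested in A549 cells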;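 also: scaled between vehicle wells and reference inhibitor wells; 23 nL library stock went into each well; one replicate is shown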
Vaccinia inh Venus: second read-out of Vaccinia inh, no call of its own (marks repeat the call); activity change (Venus), %; measured here: Venus reporter, other viral stage;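 negative = less Venus signal; first of two replicates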
* hit, by the source's call; ? = inconclusive; / = not tested or not shown; & = joins results of further samples. These rows are one share of the data, so the mix of outcomes need not match the whole.

SMILES | Vaccinia inh | Vaccinia inh Venus
C[C@H]1CN([C@@H](C)CO)C(=O)c2cc(NC(=O)Nc3ccc(F)cc3)ccc2O[C@@H]1CN(C)Cc1ccc(-c2ccccc2)cc1 | -15.5 | -4.0
COc1ccccc1NC(=O)N1CC(=O)N2[C@H](CO)[C@H](c3ccc(C#CC(C)C)cc3)[C@@H]2C1 | -1.8 | 1.2
C[C@H](CO)N1C[C@H](C)[C@H](CN(C)CC2CC2)Oc2ccc(NS(C)(=O)=O)cc2C1=O | 3.5 | -1.8
COc1cccc(C(=O)Nc2ccc3c(c2)C(=O)N(C)[C@H]2CC[C@@H](CC(=O)N[C@H](C)c4ccccc4)O[C@@H]2CO3)c1 | 22.3 | 8.0
C[C@@H]1CN([C@@H](C)CO)C(=O)Cc2cc(NC(=O)C3CCCCC3)ccc2O[C@@H]1CN(C)S(=O)(=O)c1ccc(Cl)cc1 | -24.5 | -7.7
CNC[C@H]1Oc2cc(C#C[C@H](C)O)ccc2S(=O)(=O)N([C@H](C)CO)C[C@@H]1C | 18.3 | 17.1
O=C(C[C@H]1CC[C@H]2[C@@H](COC[C@H](O)CN2C(=O)Nc2ccc(C(F)(F)F)cc2)O1)NCCc1ccncc1 | -24.9 | -15.8
Cc1noc(C)c1NC(=O)N(C)C[C@H]1Oc2ccc(NC(=O)c3ccncc3)cc2CC(=O)N([C@H](C)CO)C[C@@H]1C | 2.7 | 4.3
O=C(C1CCCC1)N1CC(=O)N2[C@H](CO)[C@@H](c3ccc(Br)cc3)[C@@H]2C1 | -12.0 | -5.5
C[C@H](CO)N1C[C@H](C)[C@@H](CN(C)Cc2ccc(-c3ccccc3)cc2)Oc2ccc(NC(=O)C3CC3)cc2C1=O | -19.2 | -6.1
CNC[C@H]1Oc2ccc(NC(=O)Cc3cn(C)c4ccccc34)cc2C(=O)N([C@H](C)CO)C[C@@H]1C | 9.7 | 13.6
C[C@@H]1CN([C@@H](C)CO)C(=O)c2cc(-c3ccccc3)cnc2O[C@H]1CN(C)Cc1ccccc1 | -28.4 | -12.7
C[C@H](CO)N1C[C@H](C)[C@@H](CN(C)CC2CC2)Oc2cc(C#CC3(O)CCCC3)ccc2S1(=O)=O | 11.5 | 7.0
N#C[C@@H]1[C@@H](c2ccccc2-c2ccccc2F)[C@@H](CO)N1C(=O)C1CCOCC1 | -11.4 | -6.2
O=C(Nc1ccccc1)N1CCCCN2[C@H](C1)[C@@H](c1ccc(C#CC3CC3)cc1)[C@@H]2CO | ? | /
COCC(=O)N1C[C@@H]2[C@H](c3ccccc31)[C@@H](CO)N2C(=O)c1ccncc1 | 9.3 | 13.4
CO[C@H]1CN(C)C(=O)c2ccc(NC(=O)C3CCCC3)cc2OC[C@H](C)N(CC2CC2)C[C@H]1C | 6.6 | 6.8
CN(C)CC(=O)Nc1ccc2c(c1)[C@@H]1C[C@H](CC(=O)N3CCCCC3)O[C@H](CO)[C@@H]1O2 | 1.0 | 0.8
C[C@H]1CCCCO[C@H](CN(C)S(=O)(=O)c2ccccc2)[C@@H](C)CN([C@@H](C)CO)C(=O)c2cc(N(C)C)ccc2O1 | -4.6 | -4.3
COc1ccc(S(=O)(=O)N(C)C[C@H]2OCCCC[C@H](C)Oc3ccc(NC(=O)NC(C)C)cc3C(=O)N([C@H](C)CO)C[C@H]2C)cc1 | 7.1 | -4.9

Continued, starting with the last 3 of the part before.
SMILES | Vaccinia inh | Vaccinia inh Venus
CN(C)CC(=O)Nc1ccc2c(c1)[C@@H]1C[C@H](CC(=O)N3CCCCC3)O[C@H](CO)[C@@H]1O2 | 1.0 | 0.8
C[C@H]1CCCCO[C@H](CN(C)S(=O)(=O)c2ccccc2)[C@@H](C)CN([C@@H](C)CO)C(=O)c2cc(N(C)C)ccc2O1 | -4.6 | -4.3
COc1ccc(S(=O)(=O)N(C)C[C@H]2OCCCC[C@H](C)Oc3ccc(NC(=O)NC(C)C)cc3C(=O)N([C@H](C)CO)C[C@H]2C)cc1 | 7.1 | -4.9
CCC(=O)Nc1ccc2c(c1)C(=O)N(C)C[C@@H](OC)[C@H](C)CN(C(=O)CC1CC1)[C@H](C)CO2 | -3.5 | 0.8
CNC[C@@H]1Oc2cc(C#CCC3CCCC3)ccc2S(=O)(=O)N([C@@H](C)CO)C[C@@H]1C | ? | /
O=C(NC[C@H]1N[C@H](CO)[C@H]1c1ccccc1)c1ccccc1F | -7.6 | 0.8
COc1ccc(S(=O)(=O)N(C)C[C@@H]2Oc3ccc(NC(=O)CCC(F)(F)F)cc3CC(=O)N([C@@H](C)CO)C[C@H]2C)cc1 | -7.0 | -16.2
C[C@@H]1CN([C@@H](C)CO)C(=O)c2c(c3ccccc3n2C)-c2ccccc2CO[C@@H]1CN(C)C(=O)c1cc(Cl)cc(Cl)c1 | ? | /
C[C@H](CO)N1C[C@H](C)[C@@H](CN(C)C(=O)Nc2cccc3ccccc23)Oc2ccc(NC(=O)Cn3cnnn3)cc2C1=O | 19.7 | 18.0
O=C(Nc1ccccc1)N1CC(=O)N2[C@@H](CO)[C@H](c3ccc(C#CC4CCCC4)cc3)[C@@H]2C1 | ? | /
C[C@@H]1CN([C@@H](C)CO)S(=O)(=O)c2ccc(C#CC3CCCC3)cc2O[C@H]1CN(C)S(C)(=O)=O | ? | /
COc1ccccc1S(=O)(=O)N[C@@H]1C=C[C@@H](CC(=O)N2CCOCC2)O[C@H]1CO | 4.0 | -3.9
CCC(=O)N(C)C[C@@H]1Oc2ncc(C#C[C@@H](C)O)cc2C(=O)N([C@@H](C)CO)C[C@@H]1C | 20.0 | 19.7
CC(=O)N1[C@H](CO)[C@@H](c2ccc(-c3ccc(C#N)cc3)cc2)C12CN(C(=O)C1CC1)C2 | -8.4 | -5.4
CC(C)NC(=O)Nc1ccc2c(c1)CC(=O)N([C@H](C)CO)C[C@@H](C)[C@@H](CN(C)S(=O)(=O)c1ccc(F)cc1)O2 | 10.1 | 5.9
C[C@H](CO)N1C[C@H](C)[C@@H](CN(C)C(=O)Nc2ccc(F)cc2)Oc2ccc(NC(=O)Nc3cccc4ccccc34)cc2CC1=O | 10.6 | 10.3
C[C@@H]1CN([C@H](C)CO)S(=O)(=O)c2ccc(Br)cc2O[C@H]1CN(C)Cc1ccncc1 | -22.2 | -18.1
COc1ccccc1CNC(=O)C[C@H]1CC[C@H]2[C@@H](COC[C@@H](O)CN2Cc2cccc(-c3ccncc3)c2)O1 | -19.4 | -12.9
C[C@H]1CN([C@@H](C)CO)C(=O)c2cccc(NC(=O)C3CCOCC3)c2O[C@H]1CN(C)C(=O)Nc1ccccc1 | 7.1 | 7.9
CNC[C@@H]1Oc2cc(C#CC(C)(C)O)ccc2S(=O)(=O)N([C@@H](C)CO)C[C@@H]1C | 2.5 | -3.9
COc1ccc(NC(=O)Nc2ccc3c(c2)C(=O)N([C@H](C)CO)C[C@H](C)[C@@H](CN(C)S(=O)(=O)c2ccccc2)O3)cc1 | 9.7 | 1.8
CCNC(=O)[C@@H]1[C@@H](CO)[C@@H]2Cn3c(cccc3=O)[C@H]1N2Cc1cccc(Cl)c1 | 4.6 | 1.6
C[C@@H]1CN([C@H](C)CO)C(=O)c2cc(-c3ccc(C(=O)N(C)C)cc3)cnc2O[C@H]1CN(C)Cc1ccc(C(=O)O)cc1 | 22.8 | 4.2

An excerpt of these results, with two lines to a compound:
Below each compound: Vaccinia inh	Vaccinia inh Venus
- CNC[C@@H]1Oc2cc(C#CC(C)(C)O)ccc2S(=O)(=O)N([C@@H](C)CO)C[C@@H]1C
 : 2.5	-3.9
- COc1ccccc1CNC(=O)C[C@H]1CC[C@H]2[C@@H](COC[C@@H](O)CN2Cc2cccc(-c3ccncc3)c2)O1
 : -19.4	-12.9
- O=C(NC[C@H]1N[C@H](CO)[C@H]1c1ccccc1)c1ccccc1F
 : -7.6	0.8
- COc1ccc(S(=O)(=O)N(C)C[C@@H]2Oc3ccc(NC(=O)CCC(F)(F)F)cc3CC(=O)N([C@@H](C)CO)C[C@H]2C)cc1
 : -7.0	-16.2

The list continues:
SMILES | Vaccinia inh | Vaccinia inh Venus
C[C@H](CO)N1C[C@H](C)[C@@H](CN(C)Cc2cccnc2)Oc2cc(C#CC3CC3)ccc2S1(=O)=O | 0.8 | -7.0
Cc1noc(C)c1NC(=O)N(C)C[C@@H]1Oc2ccc(NC(=O)Nc3ccc(F)cc3)cc2C(=O)N([C@@H](C)CO)C[C@H]1C | 2.6 | 16.3
Cc1ccc(S(=O)(=O)Nc2ccc3c(c2)C(=O)N([C@H](C)CO)C[C@H](C)[C@H](CN(C)C(=O)NC(C)C)OCCCC[C@H](C)O3)cc1 | -1.0 | -7.9
C[C@H]1CN([C@@H](C)CO)C(=O)c2cc(NC(=O)c3ccncc3)ccc2O[C@H]1CN(C)Cc1ccc(-c2ccccc2)cc1 | -9.1 | -12.2
CCCC(=O)Nc1ccc2c(c1)C(=O)N(C)[C@H]1CC[C@@H](CC(=O)Nc3ccccc3)O[C@H]1CO2 | -4.6 | -8.1
OC[C@H]1[C@@H](c2ccc(C#CC3CCCC3)cc2)[C@H]2CN(CCC(F)(F)F)CCCCN21 | ? | /
C[C@@H]1CCCCO[C@H](CN(C)C(=O)Nc2ccc(F)cc2)[C@@H](C)CN([C@@H](C)CO)C(=O)c2cc(NS(=O)(=O)c3ccccc3)ccc2O1 | ? | /
COc1ccc(S(=O)(=O)Nc2ccc3c(c2)C(=O)N([C@H](C)CO)C[C@@H](C)[C@H](CN(C)Cc2ccc(C(=O)O)cc2)OCCCC[C@@H](C)O3)cc1 | 25.7 | 13.4
C[C@@H]1CN([C@@H](C)CO)C(=O)CCCn2cc(nn2)CO[C@H]1CN(C)S(=O)(=O)c1ccccc1 | 9.0&5.4 | 14.7&-6.9
CCCNC(=O)Nc1ccc2c(c1)C(=O)N(C)[C@@H]1CC[C@H](CC(=O)NCCCN(C)C)O[C@@H]1CO2 | 0.2 | -3.7
C[C@@H]1CCCCO[C@@H](CN(C)CC2CCCCC2)[C@@H](C)CN([C@@H](C)CO)C(=O)c2cc(NS(=O)(=O)c3ccc(F)cc3)ccc2O1 | -25.2 | -22.1
N#C[C@H]1[C@H](c2ccccc2)[C@@H](CO)N1S(=O)(=O)c1cccc(F)c1 | -3.2 | -4.2
Cc1ccc(S(=O)(=O)N(C)C[C@H]2OCCCC[C@@H](C)Oc3ccc(NC(=O)Nc4cccc5ccccc45)cc3C(=O)N([C@@H](C)CO)C[C@H]2C)cc1 | 1.2 | 20.1
CCC(=O)N1CCCCN2[C@H](CO)[C@H](c3ccc(-c4ccc(F)cc4)cc3)[C@@H]2C1 | 6.8 | -15.9
CCCNC(=O)N1CC2(CCN(C(=O)CCC)CC2)c2c(n(C)c3cc(OC)ccc23)[C@@H]1CO | 20.9 | 6.6
C[C@H]1CN([C@@H](C)CO)C(=O)Cc2cc(NC(=O)c3ccncc3)ccc2O[C@@H]1CN(C)Cc1ccc(-c2ccccc2)cc1 | -10.0 | -2.0
COCCNC(=O)[C@@H]1[C@@H](CO)[C@@H]2Cn3c(cccc3=O)[C@H]1N2Cc1cc(F)ccc1F | 12.3 | 7.8
COCC(=O)N1CC2(CN(S(C)(=O)=O)C2)c2c(n(C)c3cc(OC)ccc23)[C@@H]1CO | 20.3 | 3.4
CN(C)C(=O)C[C@H]1CC[C@@H]2[C@H](COc3ccc(NC(=O)C4CCCC4)cc3C(=O)N2C)O1 | 4.0 | 0.5
O=C(C1CCOCC1)N1CC(=O)N2[C@H](C1)[C@@H](c1ccc(C#CC3CCCC3)cc1)[C@@H]2CO | -7.9 | -11.6
C[C@H]1CN([C@@H](C)CO)C(=O)c2cc(-c3ccncc3)cnc2O[C@@H]1CN(C)C | 17.8 | 16.3
C[C@@H]1CN([C@@H](C)CO)C(=O)c2cc(-c3ccc(C#N)cc3)cnc2O[C@H]1CN(C)C(=O)CN(C)C | 23.2 | 17.2
C/C=C/c1ccc([C@@H]2[C@H](CO)N(C(=O)C3CCCC3)C23CN(C(=O)NC(C)C)C3)cc1 | 1.6 | 10.6
COCC(=O)N1C[C@@H](C)[C@@H](OC)CN(C)C(=O)c2ccc(NC(=O)c3ccccc3)cc2OC[C@H]1C | 1.7 | 2.5
COc1ccc(CN(C)C[C@H]2Oc3c(NS(C)(=O)=O)cccc3C(=O)N([C@H](C)CO)C[C@@H]2C)cc1 | 2.8 | 2.3
C[C@H](CO)N1C[C@H](C)[C@@H](CN(C)Cc2cccnc2)OCc2ccccc2-c2ccccc2C1=O | 17.1 | 9.0
CC(=O)NC[C@@H]1[C@@H](c2ccc(C3=CCCCC3)cc2)[C@@H](CO)N1C(=O)C1CCC1 | 2.3 | -15.2
CN1C(=O)c2cc(NC(=O)Cc3cccs3)ccc2OC[C@@H]2O[C@H](CC(=O)NCC3CCCCC3)CC[C@H]21 | -4.0 | -0.8
C[C@H](CO)N1C[C@H](C)[C@@H](CN(C)Cc2ccncc2)Oc2ccc(NC(=O)CCCCCC(=O)Nc3ccccc3N)cc2C1=O | -1.4 | 5.1
C[C@@H]1CCCCO[C@@H](CN(C)S(=O)(=O)c2ccccc2)[C@H](C)CN([C@@H](C)CO)C(=O)c2cc(NS(=O)(=O)c3cccs3)ccc2O1 | ? | /
Cc1ccc(S(=O)(=O)Nc2ccc3c(c2)C(=O)N([C@H](C)CO)C[C@@H](C)[C@H](CN(C)C(=O)NC(C)C)OCCCC[C@@H](C)O3)cc1 | 2.0 | -2.6
Cc1noc(C)c1NC(=O)N(C)C[C@@H]1Oc2ncc(C#CC3CCCCC3)cc2C(=O)N([C@@H](C)CO)C[C@H]1C | 6.6 | 1.4
O=C(C[C@@H]1CC[C@@H]2[C@H](COC[C@@H](O)CN2C(=O)c2ccccc2)O1)NCc1cccc(F)c1 | 2.2 | 6.9
COCC(=O)N1C[C@@H](C)[C@H](OC)CN(C)C(=O)c2cc(NC(=O)Nc3ccccc3)ccc2OC[C@@H]1C | -3.3 | -2.6
CO[C@@H]1CN(C)C(=O)c2ccc(NS(=O)(=O)c3ccccc3C)cc2OC[C@@H](C)N(S(=O)(=O)c2ccccc2)C[C@H]1C | -32.3 | -20.9
C[C@H](CO)N1C[C@H](C)[C@H](CN(C)C(=O)C2CCOCC2)Oc2cc(-c3ccc(C(=O)N(C)C)cc3)ccc2S1(=O)=O | 10.7 | 1.5
